Rce1 inh: blocks yeast Ras-converting enzyme; Q03530; yeast membranes, quenched prenylated peptide cleavage fluorescence; calls only; hit rate 0.27% among 290,000; AID 2563;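 active means fall in fluorescence gain of 50% or more versus controls, with final raw signal at or below 3038400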;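 further: plate controls were neutral control wells for no effect and wells lacking membranes for full effect; tested at 10 µM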
Target sequence (Q03530 whole entry, looked up): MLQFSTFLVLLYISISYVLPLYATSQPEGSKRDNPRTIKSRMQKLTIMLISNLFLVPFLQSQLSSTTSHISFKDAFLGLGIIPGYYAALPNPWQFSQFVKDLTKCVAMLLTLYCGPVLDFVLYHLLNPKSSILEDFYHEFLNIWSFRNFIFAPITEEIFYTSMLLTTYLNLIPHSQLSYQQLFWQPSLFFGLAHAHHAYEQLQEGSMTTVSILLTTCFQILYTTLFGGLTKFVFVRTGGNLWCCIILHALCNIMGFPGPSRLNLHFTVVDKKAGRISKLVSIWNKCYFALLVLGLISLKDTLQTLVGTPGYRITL
MT1-MMP act inh: MT1-MMP (human) activation inhibition | P50281 | HT1080 RFP-PRO-GFP cells, GFP/RFP ratio fluorescence, overnight; percent of plate control window, DMSO zero | GFP/RFP ratio change, % at 20 µM | hit rate 0.061% among 360,000;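 active means GFP/RFP ratio change of at least 30% with cell ATP level not reduced by more than half and red fluorescence within 50% of control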; further: strong numbers were not always called active
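Assay system: HT1080 RFP-PRO-GFP cells. Benchmarks: DMSO vehicle wells and RFP-L50D-GFP reporter cell wells. Times: overnight cell settling, then overnight compound exposure, 37 °C, 5% CO2. Compound: 20 µM single dose, 1% DMSO. Read-out basis: GFP/RFP fluorescence ratio.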
UUG fidelity: alters start codon recognition fidelity in yeast | S. cerevisiae UUG-firefly luciferase reporter, luminescence/redox ratio | activity score, % at 18.7 µM | hit rate 0.13% among 350,000 | AID 602363;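 active means replicate mean at a twofold rise or more, about +100% in these data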;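 further: firefly luciferase made from a UUG start codon reports start codon fidelity; reporter light over untreated wells divided by growth signal over untreated wells; some hits fall short of that in this replicate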
CSC inhib: cancer stem cell inhibition; cancer stem cell-like cells viability, luminescence; inhibition, % at 7.5 µM; hit rate 1.1% among 300,000;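 active means mean at 75% or more and at least half the replicates too; tested in HMLE shEcad cells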;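 further: 0% = median of negative and 100% = median of positive control wells; the first replicate is given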
PABP FP inh: blocks human PABP binding to poly(A) RNA | P11940 | fluorescence polarization | inhibition, % at 35 µM | hit rate 1% among 290,000;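 active means 50% or more with normal probe brightness, or confirmed in later tests; about a fifth of its hits are not listed in these tables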;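 further: calls also rest on retests at 20 µM and on dose response follow-up; controls were probe without protein and protein plus probe with vehicle; some compounds called inactive have numbers as strong as hits; many hits fall short of the cut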
Target sequence (P11940 whole entry, looked up): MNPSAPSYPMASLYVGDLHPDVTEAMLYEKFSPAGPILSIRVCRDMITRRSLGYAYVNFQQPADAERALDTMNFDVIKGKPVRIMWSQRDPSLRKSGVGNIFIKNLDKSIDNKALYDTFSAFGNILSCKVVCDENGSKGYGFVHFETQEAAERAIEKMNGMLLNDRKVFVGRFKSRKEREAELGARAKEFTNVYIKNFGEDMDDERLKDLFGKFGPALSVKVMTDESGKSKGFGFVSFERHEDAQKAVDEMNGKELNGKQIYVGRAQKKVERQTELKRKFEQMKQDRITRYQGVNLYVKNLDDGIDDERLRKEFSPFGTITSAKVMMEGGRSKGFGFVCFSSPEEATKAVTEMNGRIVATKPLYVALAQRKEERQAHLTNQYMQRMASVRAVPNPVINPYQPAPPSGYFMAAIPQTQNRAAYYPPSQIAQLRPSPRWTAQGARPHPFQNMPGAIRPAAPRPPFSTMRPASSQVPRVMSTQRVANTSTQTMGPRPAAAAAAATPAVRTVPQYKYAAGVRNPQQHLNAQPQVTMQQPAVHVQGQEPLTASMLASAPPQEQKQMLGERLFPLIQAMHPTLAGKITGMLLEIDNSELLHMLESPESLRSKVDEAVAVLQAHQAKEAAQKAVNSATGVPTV
Env fusion inh: HIV envelope-mediated fusion inhibition. HeLa-JRFL Env/CEM21 cell fusion, luciferase. inhibition, % at 12.3 µM. hit rate 1.1% among 360,000;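 active means mean replicate inhibition score of at least 50 and every replicate individually at or above 50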;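 further: 0% = plate neutral controls and 100% = maraviroc near 300 nM; one replicate is shown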
eIF4H inh: inhibitors of RNA binding by human eIF4H. hit rate 0.94% among 290,000. inhibition, % at 35 µM. eIF4H fluorescence polarization binding assay. Q15056;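 active means 50% or more with normal probe brightness, or confirmed in later tests; about a fifth of its hits are not listed in these tables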;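 further: calls also rest on retests at 20 µM and on dose response follow-up; 0% = protein and probe with vehicle and 100% = probe without protein; strong numbers were not always called active; many hits fall short of the cut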
eIF4H inh retest: recorded beside eIF4H inh, whose call it bears; inhibition, %; compound at 20 µM; confirmation average;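 mean of two retest wells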
PABP FP inh retest: also measured in PABP FP inh; calls as there; inhibition, %; compound at 20 µM; confirmation repeats;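 mean of two retest wells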
MT1-MMP act inh RFP: also measured in MT1-MMP act inh; calls as there; RFP signal change, %; measured here: RFP expression control read;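 0 = vehicle wells; hits needed this value within 50% of zero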
The depositor's hits bear a star; i = inactive; x = no result given. Not a hit list. Share with any hit: about 3%.

SMILES	Rce1 inh	MT1-MMP act inh	MT1-MMP act inh RFP	UUG fidelity	CSC inhib	PABP FP inh	Env fusion inh	eIF4H inh	others
COc1ccc(N2CC(C(=O)N/N=C/c3ccc(C)cc3)CC2=O)cc1 (stereo unspecified)	i	2	-12	-14	50	-12	18	-1
CCn1c(=NC(=O)COc2ccccc2)sc2cccc(F)c21	i	-4	-6	x	-9	14	-25	7
COc1ccc(S(=O)(=O)N2CCCCC2c2cc(C(=O)NC(C)C)no2)cc1 (stereo unspecified)	x	2	0	-3	x	x	4	x
CNC(=O)CN1C(=O)NC(Cc2c[nH]c3ccccc23)C1=O (stereo unspecified)	i	-8	-4	-10	-8	1	0	3
Cc1cccc(-c2nnn(CC/C(N)=N/O)n2)c1	i	13	4	-11	-6	2	-66	-3
COc1ccc(OC)c(Nc2ncnc3ccc(Br)cc23)c1	i	-14	-9	-9	5	-3	43	-12
Cc1cccc(NC(=O)Cn2cnc3ccc(S(=O)(=O)N4CCC(C)CC4)cc3c2=O)n1	i	-3	3	-5	-16	-2	x	1
CCOC(=O)c1c(Cc2ccccc2)c[nH]c1C	i	-1	1	-7	-6	2	-2	1
CC1CN(C(=O)N2CCOCC2)CCN1C(=O)N1CCOCC1 (stereo unspecified)	x	-7	3	x	-4	0	9	-6
CCOc1ccccc1OCCOCCN1CC(C)OC(C)C1 (stereo unspecified)	i	1	5	-23	-13	7	-46	1
CC(C)CNC(=O)COC(=O)c1c2c(nc3ccccc13)CCC2	i	0	3	-16	6	2	12	11
O=C(NC1CCCCC1)C1CCN(S(=O)(=O)N2CCOCC2)CC1	i	-6	1	-13	-13	1	-15	-3
COc1cc(/C=N/NC(=O)c2nnn(-c3nonc3N)c2C)ccc1OCc1ccc(Cl)cc1	x	2	5	-3	x	x	-4	x
CC(C)(C)OC(=O)N(CCc1ccccc1)Cc1ccc(OCc2cccc(NC(=O)/C=C/c3ccccc3)c2)cc1	x	-2	0	9	x	x	2	x
CC(C)(C)c1ccc(-c2nnc(SC3CCOC3=O)n2Cc2ccccc2)cc1 (stereo unspecified)	i	2	2	-13	-9	5	x	2
COc1ccc2[nH]cc(/C=C/c3cc[n+](C)cc3)c2c1	i	-90	-9	0	-16	-42	27	30
Cn1c(/C=N/c2nc3ccccc3[nH]2)nc2ccccc21	i	5	2	-13	x	-6	3	-5
Cc1ccc(CN2CCN(Cc3ccon3)CC2CCO)cc1 (stereo unspecified)	i	2	0	x	-24	-14	20	-8
COC(=O)C(Cc1ccc(O)cc1)NC(=O)CCC(=O)Nc1ccc(S(N)(=O)=O)cc1 (stereo unspecified)	i	-1	-3	-5	12	8	x	-1
CC(=O)N1c2ccc(S(=O)(=O)N3CCCC3C(=O)Nc3ccc(C)cc3)cc2CC1C (stereo unspecified)	i	-1	-2	4	x	12*	3	54	eIF4H inh retest=17;PABP FP inh retest=117*
CCn1c(NC(=O)Nc2cccc(C)c2C)cc2sccc21	i	-1	10	12	2	90*	-13	87*
CC(=O)Nc1ccc(NC(=O)CCn2cnnn2)cc1	i	1	3	x	11	0	-52	2
O=C(O)c1cc(=O)c2c(Cl)cc(Cl)cc2[nH]1	i	-1	-9	-2	2	x	-26	x
Cc1c(NC(=O)C(C)N2C(=O)c3ccccc3C2=O)c(=O)n(-c2ccccc2)n1C (stereo unspecified)	i	0	4	-32	-7	4	x	4
COc1ccc2c(C#CCCO)c(-c3ccc(S(C)(=O)=O)cc3)sc2c1	x	15	-8	-8	53	x	x	x
CC(=O)c1sc(C(C)(C)C)cc1NC(=O)CCC(=O)O	x	2	5	x	-5	9	-7	-4
COc1ccc(C(=O)N/N=C\c2coc3ccc(C)cc3c2=O)cc1	i	-11	-6	-27	0	-6	24	1
COC(=O)c1[nH]c2cc(OC)ccc2c1NC(=O)CN1CCC(C(N)=O)CC1	i	3	7	-7	-8	1	-18	-2
CCOc1ccc(NC(=O)CN(C)C(=O)c2c(C)noc2C)cc1OCC	i	1	3	15	-4	x	5	x
Cc1cc(C)nc(NC(=S)Nc2ccc(Br)cc2Cl)c1	i	1	0	x	-13	-4	-15	-9

By substructure, those above containing a thiophene ring, fused or not (three)
SMILES	Rce1 inh	MT1-MMP act inh	MT1-MMP act inh RFP	UUG fidelity	CSC inhib	PABP FP inh	Env fusion inh	eIF4H inh	others
CCn1c(NC(=O)Nc2cccc(C)c2C)cc2sccc21	i	-1	10	12	2	90*	-13	87*
COc1ccc2c(C#CCCO)c(-c3ccc(S(C)(=O)=O)cc3)sc2c1	x	15	-8	-8	53	x	x	x
CC(=O)c1sc(C(C)(C)C)cc1NC(=O)CCC(=O)O	x	2	5	x	-5	9	-7	-4

Continuation:
SMILES	Rce1 inh	MT1-MMP act inh	MT1-MMP act inh RFP	UUG fidelity	CSC inhib	PABP FP inh	Env fusion inh	eIF4H inh	others
N#CCCn1cc(C(=O)Nc2ccc(C(=O)O)cc2)c(-c2cccs2)n1	i	-2	-1	x	-4	-3	9	-12
CC(=O)Nc1ccc(S(=O)(=O)N2CCN(c3nnnn3-c3ccccc3)CC2)cc1	i	-2	-1	x	-11	-4	-4	-8
COC(=O)c1c(C)oc2ccc(OC(=O)N3CCOCC3)cc12	i	1	-2	-12	13	0	x	0
CC(C)N(C(=O)COC(=O)CCC(=O)c1cccs1)c1ccccc1	x	1	1	-10	-9	x	x	x
CC(C(=O)c1ccc(Br)cc1)[n+]1cccc2ccccc21 (stereo unspecified)	i	-65	-4	-19	-6	31*	-3	90	eIF4H inh retest=13;PABP FP inh retest=100*
COC(=O)c1c(Oc2nc(OC)cc(OC)n2)cccc1Oc1nc(OC)cc(OC)n1	i	2	5	-8	3	0	x	-5
Cc1cc(Cl)ccc1C(=O)C1CCCN(C(=O)c2cccc(N3CCCC3=O)c2)C1 (stereo unspecified)	i	-1	-4	30	20	10	17	-2
COc1ccc(C2(CNC(=O)Cc3ccc(OC)c(OC)c3)CCOCC2)cc1	i	2	5	7	-6	-10	-431	-4
COc1ccc(C(=O)Nc2ccc(C(=O)N3CCCCC3C)cc2)c(OC)c1OC (stereo unspecified)	i	3	1	-3	-6	3	-1	-5
O=c1c2sccc2nc(SCc2cc(=O)n3ccccc3n2)n1Cc1ccccn1	i	x	x	x	-2	5	-18	2
Cc1[nH]n(-c2ccccc2)c(=O)c1N=Nc1ccc2c(c1)OCO2	i	-2	2	x	9	-16	-116	-4
COc1ccc(/C=C2\COc3ccccc3C2=O)cc1OC	i	0	-17	x	24	5	-35	10
Cc1onc(-c2ccccc2Cl)c1C(=O)OCn1nnc2ccccc2c1=O	i	1	0	-4	2	7	x	-7
CCC(C(=O)NCc1cccnc1)c1ccccc1 (stereo unspecified)	i	-11	-1	x	-14	4	14	-1
CN(C)c1ncc(C2=C(Cl)C(=O)C(N3CCCC3)=C(Cl)C2=O)s1	i	7	9	-7	4	x	-33	x
CC(C)(C)C(=O)Cn1ncc(NC2CC2)c(Br)c1=O	i	-1	2	-2	-3	-5	x	-5
CC1C(=O)C(C)C(c2cc(Cl)ccc2O)NC1c1cc(Cl)ccc1O (stereo unspecified)	i	0	-1	-10	48	4	19	8
COC(=O)c1cc(S(=O)(=O)NCCc2cccc(C)c2)cn1C	i	0	-1	0	-13	x	-3	x
CCc1nnc(NC(=O)C2CCCN2C(=O)NC2CCCCC2)s1 (stereo unspecified)	i	1	2	-3	-15	4	13	-10
CC(C)(C)C(=O)OCc1nc(-c2ccc(C(F)(F)F)cc2)cs1	i	1	-7	17	-6	-4	-4	1
COc1ccc(C2CC(=O)c3cnc(NC(=O)c4cccc(OC)c4)nc3C2)cc1 (stereo unspecified)	i	0	5	2	-17	-9	1	-2
O=C(Nc1ccn(Cc2cccc3ccccc23)n1)c1cccnc1	i	-1	-15	x	18	-14	11	2
O=C(NNC(=O)C1CCCCC1)c1cnccn1	i	-4	0	-4	-11	3	-6	6
CCOc1ccc(CCNS(=O)(=O)c2ccc3c(c2)NC(=O)CC(=O)N3)cc1OCC	i	-11	5	-10	-10	4	15	4
Cc1ccc(COC(=O)CCN=C2NS(=O)(=O)c3ccccc32)cc1	i	-1	0	4	-6	x	-65	x
O=S(=O)(Nc1nc2ccccc2nc1NCCN1CCOCC1)c1cccc(Cl)c1	i	1	-4	x	-4	5	-57	-6
Cc1occc1C(=O)NNC(=O)c1ccccc1Br	i	-2	4	-11	11	-9	10	-5
CN(C)c1nc(N)nc(-c2ccco2)n1	i	-1	3	-19	3	2	x	10
C=C(C)CSc1nnc([C@@H](NC(=O)OC(C)(C)C)C(C)CC)o1 (stereo partly specified)	i	-5	-2	-11	0	-3	-117	1
CS(=O)(=O)N1CCC(Oc2ccccc2C(=O)NC2CCOC2)CC1 (stereo unspecified)	i	-1	-1	x	2	2	6	-9

The last two entries of the section before are carried over, then new ones follow:
SMILES	Rce1 inh	MT1-MMP act inh	MT1-MMP act inh RFP	UUG fidelity	CSC inhib	PABP FP inh	Env fusion inh	eIF4H inh	others
C=C(C)CSc1nnc([C@@H](NC(=O)OC(C)(C)C)C(C)CC)o1 (stereo partly specified)	i	-5	-2	-11	0	-3	-117	1
CS(=O)(=O)N1CCC(Oc2ccccc2C(=O)NC2CCOC2)CC1 (stereo unspecified)	i	-1	-1	x	2	2	6	-9
CC(=O)Nc1cccc(NC(=O)C2CC(=O)N(C3CCCCC3)C2)c1 (stereo unspecified)	i	1	2	5	-8	-6	-2	-11
CCCc1cc(C(=O)N2CCCC(C(=O)c3ccc(Cl)cc3)C2)n(C)n1 (stereo unspecified)	i	-9	-10	1	3	7	7	-8
CCn1c(C)nc2cc(C(=O)OC)ccc21	i	-5	-5	x	-11	-4	-6	-11
CCCc1cc(=O)oc2cc(OCC(=O)NCCc3ccc(S(N)(=O)=O)cc3)ccc12	i	0	-4	8	-3	14	-8	-6
CCCCOC(=O)CSCC(=O)N1N=C(c2cccs2)CC1c1ccc(F)cc1 (stereo unspecified)	i	-5	-3	x	-24	2	-21	-2
COc1cccc(C(C(=O)NC2CCCCC2)N(C(=O)Cc2cccs2)c2ccc(-n3cnnn3)c(OC)c2)c1 (stereo unspecified)	i	-13	-10	-7	13	-2	-44	-9
CCCn1nnc(NC(=O)c2ccc(OCC)c(Cl)c2)n1	i	2	1	19	-8	4	x	2
CCOC(=O)c1c(C)oc2c1c1c(c3ccccc32)OCN(CCCC(=O)O)C1	i	-3	2	-21	38	23	i	15
CCC(CC)C(=O)Nc1c(C(=O)N2CCN(c3ccccc3)CC2)oc2ccccc12	i	-2	-9	-3	24	-3	7	6
S=C(c1ccc(-c2cc(Cl)ccc2Cl)o1)N1CCOCC1	i	3	-3	1	1	8	-73	5
CC(=O)/C(N=Nc1ccc(C(=O)O)cc1[N+](=O)[O-])=C(\C)O	i	2	6	-8	-5	15	-15	11
O=C(NNS(=O)(=O)c1cccc(Cl)c1)c1cc(-c2ccc(F)cc2)nc2ccccc12	x	-1	-2	-4	-2	-6	24	-5
COc1ccc(C(CNC(=O)/C=C/c2c(Cl)nc3ccccn23)N(C)C)cc1 (stereo unspecified)	i	-2	0	x	2	66*	-6	7.6*	eIF4H inh retest=86*;PABP FP inh retest=83*
Cc1sc2nc(CSCC(=O)Nc3ccc(Cl)cc3F)[nH]c(=O)c2c1C	x	-9	2	-3	x	x	37	x
O=C(CN1CCC(n2nnc3cc(F)ccc32)CC1)Nc1ccccc1N1CCOCC1	i	3	-6	-6	10	5	x	3
COc1ccc(NC(=O)c2cccs2)cc1C(=O)N1CCN(c2ccccc2)CC1	i	-5	-4	-7	8	8	-3	10
CCCN1CNC(=S)N(c2ccccc2C)C1	i	0	6	x	-9	-12	-1	-8
COc1ccc(S(=O)(=O)NCC2CCC(C(=O)NCCCN3CCCC3=O)CC2)cc1 (stereo unspecified)	i	-4	0	-7	-10	5	9	-5
COc1ccc(CN=C2NC(=O)CC(C(=O)Nc3ccc(Cl)cc3)S2)cc1 (stereo unspecified)	i	3	-3	x	0	1	x	-7

Source: PubChem BioAssay
